# Screening results from PubChem BioAssay.
# CDC25B-CDK2 inh = human CDC25B-CDK2/CyclinA binding inhibition; HTRF CDC25B-CDK2/CyclinA binding, anti-His/anti-Flag; hits give high values; z-score (test concentration not listed); 94,000 tested, 0.72% active;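 note: score is relative to mean and SD of negative controls; strong numbers were not always called active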
# TAR Tat displ = HIV-1 TAR-Tat binding disruption; HIV-1 TAR RNA, Tat peptide displacement FRET; hits give high values; z-score (concentration not given with the values); 100,000 tested, 0.6% active;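 note: score is relative to mean and SD of negative controls; some compounds called inactive have numbers as strong as hits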
# Starred values were filed as active, the others as inactive; / = not tested or not shown.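 Rule for the calls: active = z-score from 3 up in half or more of its runs; inactive = the rest.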
# Results follow in this order: CDC25B-CDK2 inh	TAR Tat displ
> CNC(=O)CN1c2ccc(Br)cc2-c2ccccc2S1(=O)=O
    -1.4	0.29
> O=C(O)CC1=C(c2ccccc2)CCC1=O
    -2.2	1.3
> C=CCSc1nc(=O)c2c(n1C)NC(=O)CC2c1ccc(OCC)c(OC)c1 (configuration not stated)
    -0.45	-0.96
> C#CCn1c(C2CC(=O)N(c3ccc(OC)cc3)C2)nc2ccccc21 (configuration not stated)
    -2.9	-1.8
> CCC(C)NCCS(=O)(=O)c1ccc(Cl)cc1 (configuration not stated)
    -1.9	/
> O=C(c1cccs1)n1nc(-c2ccco2)nc1NCc1cccs1
    -0.52	-0.67
> Cc1ccc2oc(-c3ccc(NC(=O)/C=C/c4ccccc4)cc3O)nc2c1
    -2	/
> Cc1c(C(=O)N2CCN(CCc3ccncc3)CC2)oc2cc(Br)ccc12
    0.72	1.2
> Clc1ccc2c(Sc3cccc4cccnc34)ccnc2c1
    -6.8	/
> O=C(c1cnc(N2CCCC2)nc1)N1CCOCC1
    0.09	1.7
> COCCNC(=O)c1ccc(-n2ccc3ccccc32)s1
    /	-0.8
> CN1CCN(CCCNC(=O)CCCn2c(=O)c3cccn3c3ccccc32)CC1
    /	0.47
> Cc1ccn2cc(-c3cccc(NC(=O)CCC(=O)O)c3)nc2c1
    -2.4	/
> Cc1ccc(C(=O)Nc2cnc3sc4cc(F)ccc4n3c2=O)cc1
    -0.61	1.6
> O=S(=O)(O)c1ncccn1
    -1.1	/
> CCOC(=O)c1c(C)oc2ncnc(NC3CC3)c12
    /	0.62
> O=C(Nc1ccc(Cl)cc1)c1cc2ccccc2c(=O)s1
    -1.6	-0.07
> CS(=O)(=O)Nc1nc2ccc(NC(=O)C3CCC3)cc2s1
    /	0.71
> CN1CCc2cc(NC(=O)Nc3cccnc3)ccc21
    23*	/
> O=C(Nc1cc(-c2cccc(Cl)c2)no1)c1noc2c1CCCCC2
    /	0.98
> Cn1nnnc1SCCCNCc1ccsc1
    -2.4	-0.24
> Cc1cc(SCc2ccccc2)n2ncnc2n1
    0.05	1.5
> CCc1cnc(/N=C/NO)nc1-c1c(F)cccc1F
    -1.6	/
> Cn1nc(-c2ccccc2)cc1NC(=O)c1sc2ccccc2c1Cl
    -0.65	/
> O=C(Cn1nc2c(cc1=O)CCCC2)Nc1ccc2c(c1)OCCO2
    /	1.6
> CN(Cc1ccccc1)C(=O)C1=Cc2sc3c(c2CS1)CCCC3
    /	3.7
> Cc1cc2n(n1)CCC(=O)N2CCCC(=O)N1CCN(C2CCCCC2)CC1
    /	2.5
> COCCCNC(=O)CCCn1nc(C)n2c(cc3occc32)c1=O
    -1.8	1.5
> CC(C)C(=O)Nc1ccc(OCc2cc(=O)n3ccccc3n2)cc1
    /	1.4
> CCCOc1c(C(=O)OC)sc2ccc(N)cc12
    3.5	-3.5
> COC(=O)c1c(NC(=O)c2cc(=O)c3cc(C)cc(C)c3o2)sc2c1CCC2
    0.56	0.72
> Cc1cc(Cl)ccc1OCc1nc(-c2ccccc2)no1
    -0.24	/
> Cc1nn(Cc2ccc(F)cc2)c(=O)c2noc(C)c12
    /	-0.75
> COc1ccc(OC)c(/C=C(\C#N)C(N)=O)c1
    1	/
> Cc1ccc(-c2nsc(NC(=O)COc3ccc(Br)cc3)n2)s1
    -0.93	-0.85
> CC1=C(C(N)=O)C(c2cccs2)n2ncnc2N1 (configuration not stated)
    -1.7	0.46
> CC(C)(C)c1coc2cc3oc(=O)c4ccccc4c3cc12
    -2	2.8
> Cc1ccc2oc3c(c(=O)c2c1)C(c1ccc(F)cc1)N(CCCn1ccnc1)C3=O (configuration not stated)
    -1.2	-0.87
> CC(C)(C)n1nc2c(c1NC(=O)C1(c3ccc(Cl)cc3)CCCC1)CS(=O)C2 (configuration not stated)
    0.3	/
> COc1ccc(C2=NN3C(C2)c2ccccc2OC3c2ccncc2)cc1OC (configuration not stated)
    -0.92	-0.61
> O=S1(=O)c2ccccc2NC(c2ccccc2C(F)(F)F)N1Cc1ccccc1 (configuration not stated)
    0.03	/
> O=C1COc2ccccc2C(=O)N1
    -0.64	/
> Clc1ccc(-c2noc3ncnc(NCCCN4CCCC4)c23)cc1
    -1.4	-1
> Cc1onc(-c2ccccc2)c1-c1ccc(S(N)(=O)=O)cc1
    /	2.2
> Cc1ccc(-c2n[nH]c(=O)c3c2CCCC3)cc1S(=O)(=O)Nc1ccc(F)c(F)c1
    0.78	-2.1
> CCc1ccccc1NS(=O)(=O)c1ccc(-c2cnc(C3CC3)o2)cc1
    /	0.18
> CCOC(=O)c1ccc2[nH]c3c(c2c1)CCCC3
    -2.1	1.9
> COc1ccc(C2/C(=C(/O)c3ccccc3)C(=O)C(=O)N2CCO)cc1OC (configuration not stated)
    -1.6	0.38
> Clc1cccc(N2CCN(CN3CCN(c4cccc(Cl)c4)CC3)CC2)c1
    -2.1	/
> CC1Cc2cc(S(=O)(=O)N3CCC(C(=O)NC4CCCCC4)CC3)ccc2N1C(=O)C1CC1 (configuration not stated)
    /	0.46

# The list goes on (3 carried over from the part before).
# Results follow in this order: CDC25B-CDK2 inh	TAR Tat displ
> COc1ccc(C2/C(=C(/O)c3ccccc3)C(=O)C(=O)N2CCO)cc1OC (configuration not stated)
    -1.6	0.38
> Clc1cccc(N2CCN(CN3CCN(c4cccc(Cl)c4)CC3)CC2)c1
    -2.1	/
> CC1Cc2cc(S(=O)(=O)N3CCC(C(=O)NC4CCCCC4)CC3)ccc2N1C(=O)C1CC1 (configuration not stated)
    /	0.46
> O=C(CC1=NC(c2ccccc2O)ON1)N1CCCC1 (configuration not stated)
    -1.1	/
> Cc1nc2sccn2c(=O)c1NC(=O)c1ccc(F)c(F)c1
    /	0.55
> Cc1nn2c(=O)cc(CSc3ccccc3NC(=O)C(C)C)nc2s1
    /	0
> CC(C)(C)OC(=O)N1CCCC[C@@H]1C(=O)O
    0.97	/
> CCOc1cc(C2c3c(-c4c(C)cc(C)cc4O)n[nH]c3C(=O)N2CCO)ccc1O (configuration not stated)
    -0.85	0.61
> Cc1nn2c(=O)c(NC(=O)c3ccccc3C)cnc2s1
    0.06	0.28
> CCOC(=O)CC(=O)CSc1nn2c(=O)c(C)nnc2s1
    /	1.5
> NCC(c1ccc[nH]1)C(F)(F)F (configuration not stated)
    -2.4	/
> CCc1nc2nc(C)cc(Nc3ccc4c(c3)OCCO4)n2n1
    0.59	0.71
> COc1ccc(-c2nc3nc(C)cc(N4CCN(C)CC4)n3n2)cc1
    1.2	1.1
> COc1cc(NC(=O)CCN2C(=O)c3ccccc3S2(=O)=O)c(OC)cc1Cl
    -1.6	/
> N/C(CSc1cccs1)=N\O
    0.33	/
> Cn1c(C(=O)N2CCC(C(=O)NCCN3CCOCC3)CC2)cc2sccc21
    -2.8	3
> CC1(C)CC(=O)C2=C(C1)OC1=C(C(=O)CC(C)(C)C1)C2c1ccc(Cl)c(Cl)c1
    -2.6	/
> O=C(N/N=C/c1coc2ccccc2c1=O)c1cc(O)cc(O)c1
    0.42	/
> Cc1ccc(-c2cn3ccccc3n2)cc1NS(=O)(=O)c1ccc(Br)cc1
    -0.32	1.8
> Cc1nccn1CC(=O)N1c2ccccc2Sc2ccccc21
    -0.27	1.6
> Cc1[nH]nc2c1C(c1cccc(O)c1)NC2=O (configuration not stated)
    -0.99	1.5
> CC(C)CNc1nnnc2c1sc1nc(N3CCOCC3)c3c(c12)CCCC3
    -0.87	/
> OCCSc1nc2ccccc2n1Cc1ccccc1
    -2.7	0.18

# Overlap with the part before: three compounds, followed by the next part.
# Results follow in this order: CDC25B-CDK2 inh	TAR Tat displ
> Cc1[nH]nc2c1C(c1cccc(O)c1)NC2=O (configuration not stated)
    -0.99	1.5
> CC(C)CNc1nnnc2c1sc1nc(N3CCOCC3)c3c(c12)CCCC3
    -0.87	/
> OCCSc1nc2ccccc2n1Cc1ccccc1
    -2.7	0.18
> Cc1cccc(C)c1NC(=O)C(C)Oc1ccc(Cl)cc1Cl (configuration not stated)
    -1.6	/
> CCC1(C)Cc2c(sc(N)c2C(=O)O)CO1 (configuration not stated)
    -0.35	-6.6
> CN1CCN(C(=O)c2ccc3c(Cl)c4c(nc3c2)CCCC4)CC1
    -1.2	/
> O=c1c2n[nH]c(=O)n2ccn1-c1ccc(F)c(F)c1
    -0.69	1.6
> Cc1ccc(S(=O)(=O)n2ccn(C(=O)CC(C)C)c2=O)cc1
    /	-0.54
> Cc1ccc(-n2ncc3c(N4CCN(C)CC4)ncnc32)cc1
    /	1.1
> Cc1ccc(-n2nnc(-c3nc(-c4ccc(Br)cc4)no3)c2N)c(C)c1
    /	-0.33
> Cc1ccc(C)c(S(=O)(=O)c2nnn3c2nc(NCCCN2CCCC2=O)c2sccc23)c1
    /	0.45
> Cc1cccc(NC(=O)c2sc3nc4n(c(=O)c3c2C)CCCC4)n1
    /	1.4
> Cc1csc2nc(-c3ccc(NS(=O)(=O)c4cccc(F)c4)cc3)cn12
    /	-2.2

# 3 structures already listed, arranged by length of the SMILES, largest number first:
# Results follow in this order: CDC25B-CDK2 inh	TAR Tat displ
> Cc1ccc(-n2nnc(-c3nc(-c4ccc(Br)cc4)no3)c2N)c(C)c1
    /	-0.33
> Cc1ccc(S(=O)(=O)n2ccn(C(=O)CC(C)C)c2=O)cc1
    /	-0.54
> Cc1ccc(-n2ncc3c(N4CCN(C)CC4)ncnc32)cc1
    /	1.1

# (continued)
# Results follow in this order: CDC25B-CDK2 inh	TAR Tat displ
> CC(C)C(C)/C=C/C(C)C1CCC2C3=CC=C4CC(O)CCC4(C)C3CCC21C (configuration not stated)
    /	0.77
> O=C(CSc1ncnc2ccccc12)N1CCc2ccccc21
    -0.87	0.42
> O=[N+]([O-])c1cc(CO)ccc1N1CCCC1
    -3.4	/
> O=C(NCCN1CCN(c2ccccc2)CC1)Nc1ccc(Br)cc1F
    -2.4	1
> CCCCCOC(=O)c1ccc(N2CC(O)=C(c3nc4ccccc4n3C)C2=N)cc1
    -1.2	0.79
> O=C(CCc1nc(CSc2nc3ccccc3s2)no1)Nc1ccccc1Cl
    /	1
> O=C(Nc1ccc(F)cc1)c1cnn(-c2ccc(F)cc2)c1C1CCNCC1
    -2.3	2.4
> CC(=O)n1c2c(c3ccccc31)OC(N)=C(C#N)C2c1ccc(Cl)cc1 (configuration not stated)
    -0.03	-0.25
> COCCNC(=O)c1cc2c(s1)-c1cc(C)sc1CC2
    /	-0.08
> O=C(Cn1c(=O)c(C(F)(F)F)nc2ccccc21)NCc1ccccn1
    12	0.81
> COC(=O)c1cc2occc2n1CC(=O)N(C)C1CCCCC1
    -0.29	0.14
> Cc1cc(NC(=O)CC(C)S(=O)(=O)c2ccc3c(c2)NC(=O)CS3)ccc1Br (configuration not stated)
    /	-6.8
> CC(C)(C)c1ccc(C(=O)NC(=O)Nc2ccccc2)s1
    -1.3	/
> O=C(CN1C(=O)c2ccccc2C1=O)Nc1cscc1S(=O)(=O)c1ccccc1
    0.96	/
> Cn1c(=O)sc2cc(NS(=O)(=O)c3ccc(C(C)(C)C)cc3)ccc21
    /	0.45
> CCOC(=O)Cn1cc(C(=O)OCC)c(C(F)(F)F)n1
    -0.93	/
> O=C(Nc1cccc2nsnc12)c1cnccn1
    /	1.4
> CCOC(=O)C1=C(C)NC(=O)NC1c1ccc(N(CC)CC)cc1 (configuration not stated)
    -1.9	/
> O=C1Cc2cc(S(=O)(=O)NCc3ccco3)cc3c2N1CCC3
    /	1.8
> CN(C1CCCCC1)S(=O)(=O)c1ccc2c(c1)CCN2
    /	1
> Cc1nn(C(C)C(=O)NC2CCCc3ccccc32)c(=O)c2cc3sccc3n12 (configuration not stated)
    -1.4	-0.67
> CCOC(=O)c1cnc2ccc(Br)cc2c1Nc1ccc(N(C)C)cc1
    -0.69	7.7*
> COCCNc1nc2c(c(=O)n(C)c(=O)n2C)n1Cc1cc(OC)ccc1Cl
    3.2	0.11
> CCOC(=O)CC(=O)CSc1nc2c(sc(=S)n2-c2ccccc2)c(=O)[nH]1
    -1.6	/
> CC1CN(C(=O)Nc2ccc(Cl)cc2)c2ccccc2O1 (configuration not stated)
    /	3.9*
> CC1CCCCN1C(=O)CSc1nc(-c2cccc(F)c2)nc2cc(=O)[nH]n12 (configuration not stated)
    /	0.34
> O=C(COc1ccccc1Cl)OCc1cc(=O)n2ccsc2n1
    /	0.15
> COC(=O)Cc1nc(NC(=O)c2cc(C)oc2C(F)(F)F)sc1C
    -0.67	/
> CCOC(=O)c1cc2ccc(OC)c(OC)c2c(=O)s1
    -0.44	-1.6
> N#Cc1ccc(N2CCN(C(=O)c3cccs3)CC2)cc1
    0.97	/
> Cc1ccc(NC(=O)C2=Cc3sc(C)c(C)c3CS2)c(C)c1
    /	-5.7
> COc1cccc(OCCSc2nc3ncnc(N)c3[nH]2)c1
    -2.8	/
> CCOc1ccc(NC2=CC(=O)CC(C)(C)C2)cc1
    -1.2	-2
> O=C(O)c1ccc2nc(-c3ccco3)c(-c3ccco3)nc2c1
    /	51*
> Cc1ccc2c(c1)c1c3n2CCN(C(=O)c2ccccc2)C3CCC1 (configuration not stated)
    -2.2	/
> COC(=O)CSc1nc(N2CCOCC2)c2c(c1C#N)CC(C)(C)SC2
    0.53	/
> O=C(c1ccccc1)c1nnn(-c2ccccc2)c1Nc1ccccc1
    -1	/
> Cc1ccc(C(=O)CC(C(=O)O)c2c[nH]c3ccccc23)cc1 (configuration not stated)
    -2.4	-0.29
> COc1ccc(CCNc2oc(/C=C/c3ccc(F)cc3)nc2C#N)cc1OC
    -1.6	-0.67
> COc1ccc(-c2cc(=O)c3cc(OC(=O)C4CCCCC4)ccc3o2)cc1
    -0.3	1.6
> CC(C)(O)[C@H]1Cc2cc(C=O)ccc2O1
    /	1.4
> c1ccc(-n2nnnc2Oc2cccc(CNC3CCCCC3)c2)cc1
    /	1.2
> COc1cccc2sc(NC=C(C#N)C#N)nc12
    -0.86	/
> S=C(SCc1ncon1)N1CCOCC1
    -0.62	/
> S=c1nc2ccccc2c2nc(COc3ccccc3Br)[nH]n12
    -1.4	/
> Cc1ccc(OS(=O)(=O)c2cc(C(F)(F)F)cc(C(F)(F)F)c2)c([N+](=O)[O-])n1
    -1.9	/
> Cc1cc(C(=O)NNC(=O)Nc2ccc(Cl)cc2)no1
    -1.5	/
